Compound activity (PubChem)
CBX7 AlphaScr – CBX7 chromodomain binding inhibitors, primary screen, biochemical, AlphaScreen; AlphaScreen His6-CBX7 / biotin-H3K27me3 peptide binding; active compounds read low; normalised signal (fraction of DMSO) (no concentration beside the values); 1.1% of 66,000 active; in the data active = normalised signal below about 0.5;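 note: 100 nL library stock added to about 20 µL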
Target sequence (O95931 whole entry, looked up): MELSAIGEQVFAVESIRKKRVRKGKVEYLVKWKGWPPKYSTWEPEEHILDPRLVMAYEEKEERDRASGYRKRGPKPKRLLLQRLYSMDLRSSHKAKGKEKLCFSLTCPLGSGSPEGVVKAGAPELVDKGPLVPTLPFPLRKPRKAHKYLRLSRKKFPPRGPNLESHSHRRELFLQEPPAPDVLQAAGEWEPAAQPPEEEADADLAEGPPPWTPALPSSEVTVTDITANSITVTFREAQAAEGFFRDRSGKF
CBX7 AlphaScr z-score – second read-out of CBX7 AlphaScr, no call of its own (marks repeat the call); z-score; measured here: z-score of CBX7 signal; some inactives read as strong as hits; reference of the scale not given here;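 same signal on another scale; lower means less binding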
* marks the source's active call; other numbers are inactive results; & = joins results of further samples.

SMILES | CBX7 AlphaScr | CBX7 AlphaScr z-score
CCC(=O)N1c2ccc(S(=O)(=O)NCc3cccc(OC)c3)cc2CC1C (stereo not drawn) | 0.836 | -0.661
COc1ccc(-c2nc3ccc(Cl)cn3c2Nc2ccc(C)cc2)cc1 | 1.06 | 0.566
Cc1ccc(C)c(N(C)S(=O)(=O)c2ccc3[nH]cc(C(=O)N4CCCCCC4)c(=O)c3c2)c1 | 0.98 | -0.191
Clc1ccccc1-c1nc(Oc2ccccc2)nc2ccc(Br)cc12 | 1.09 | 1.51
Cc1nc2c(C(=O)NCc3ccccn3)cnn2c(C)c1Cc1ccccc1F | 1.03 | 1
COC(=O)c1ccc(OCC(O)Cn2c(C)nc3ccccc32)cc1 (stereo not drawn) | 1.04 | 0.618
Cc1cc(Nc2ccc3c(c2)OCCO3)n2nc(C)nc2n1 | 0.986 | -0.305
COc1ccc(OC)c(C2CC(=O)Nc3c2ccc(C)c3C)c1 (stereo not drawn) | 1.01 | 0.248
CCOC(=O)c1cnc2c(C)cc(Cl)cc2c1Nc1cccc(C)c1C | 1.25 | 1.12
c1cnc(Nc2nc(-c3ccncc3)cs2)nc1 | 1.09 | 1.69
CCc1ccc(NC(=O)c2cnn(-c3ccc(C)c(C)c3)c2C2CCNCC2)cc1 | 1.01 | 0.101
Cc1oc(-c2cccc(Cl)c2)nc1CN1CCC(C(=O)NCCCOC(C)C)CC1 | 1.24 | 2.08
CCCN1Cc2cccc(C(=O)NCc3ccc(F)cc3)c2C1=O | 1.06 | 0.0615
CCCN(CCC)CCCNC(=O)c1cc(=O)[nH]c2ccc(S(=O)(=O)N3CCCCC3)cc12 | 0.96 | -0.478
Cc1cc(N2CCC(C(=O)Nc3ccc(Cl)cn3)CC2)n2nc(C)c(-c3ccc(Cl)cc3)c2n1 | 1.01 | 0.336
COc1ccc(CNC(=O)c2cnn3c(C)c(Cc4ccccc4Br)c(C)nc23)cc1 | 0.885 | -1.08
CCCCCCCCc1nnc(NC(=O)Nc2ccccc2)s1 | 1.01 | 0.116
CCC(=O)N1CCc2cc(S(=O)(=O)N3CC(C)CC(C)C3)ccc21 (stereo not drawn) | 1.28 | 3.08
COc1ccc(-c2noc(C3CCCCC3)n2)cc1 | 1.28 | 9.96
Cc1cccc(-n2ccnc2SCC(=O)Nc2ccc(Br)cc2)c1 | 0.966 | -0.0335
CCOc1ccc(-n2cc(C(=O)NC(C)C)c3cc(OC)c(OC)cc3c2=O)cc1 | 0.989 | -0.292
CCOC(=O)c1cc(-c2ccccc2)n(CCC(=O)N2CCN(c3ccc(F)cc3)CC2)c1C | 0.816 | -4.91
CNC(=O)COc1ccc(Nc2nnc(-c3ccc(O)cc3)c3ccccc23)cc1 | 0.769 | -2.6
CSc1ccc(C2Nc3ccc(C(=O)c4ccccc4)cc3NC3=C2C(=O)CCC3)cc1 (stereo not drawn) | 0.853 | -7.38
CCOc1ccccc1C(=O)Nc1ccc2nc(N3CCN(CC)CC3)cc(C)c2c1 | 1.07 | 3.06
Cc1sc2ncn(CC(=O)NCCCC(=O)Nc3ccc(Oc4ccccc4)cc3)c(=O)c2c1C | 1.17 | 1.92
c1ccc(Nc2c(-c3ccsc3)nc3sccn23)cc1 | 0.902 | -1.16
COc1ccc(C2=NOC(C(=O)N3CCOCC3)C2)cc1OC (stereo not drawn) | 1.05 | 1.86
CCN(CC)S(=O)(=O)c1ccc(NC(=O)c2c(-c3ccccc3Cl)noc2C)cc1 | 0.996 | -0.117
CCC(=O)N1CCc2cc(S(=O)(=O)NCCC(=O)Nc3ccc(OC(F)(F)F)cc3)ccc21 | 0.986 | -0.185
CC(NC(=O)Cc1ccc(NC2=NC3CS(=O)(=O)CC3S2)cc1)c1ccccc1 (stereo not drawn) | 0.806 | -2.12
CCOc1ccc2c(c1)c(=O)c(S(=O)(=O)c1ccccc1)cn2CC(=O)Nc1ccccc1C | 1.02 | 0.337
c1ccc(Nc2nc(-c3cccs3)cs2)cc1 | 0.899 | -4.44
CCC(C(=O)NCc1ccc(C)cc1)N1C(=O)COc2ccc(C(C)(C)C)cc21 (stereo not drawn) | 1.04 | 1.35
CCN1CCCC1CNC(=O)c1csc2c1CCCC2 (stereo not drawn) | 1.02 | 0.882
CCN(CC)CC#CCN1CC(c2ccccc2)CC1=O (stereo not drawn) | 0.936 | -0.498
Cc1cc(Cl)ccc1NC(=O)CC1Sc2ccccc2NC1=O (stereo not drawn) | 1.02 | 0.12
CC(=O)NCCc1c[nH]c2ccc(OCC(O)CNC(C)C)cc12 (stereo not drawn) | 1.08 | 0.0936
Cc1ccc(NC(=O)Nc2ccc3snnc3c2)cc1Cl | 1.05 | 2
FC(F)(F)c1cc(-c2ccccc2)nc(-n2cc(Cl)cn2)n1 | 1.07 | 1.49
Cc1ccc(Nc2c(-c3c[nH]c4ccccc34)nc3cnccn23)cc1 | 1.52 | 4.98
Cc1ccccc1-n1nc(C)c2c1CC(C)(C)CC2=O | 0.849 | -2.74
Cc1ccc(N2CCN(C(=O)CCc3nc4ccccc4[nH]3)CC2C)cc1 (stereo not drawn) | 0.981 | -0.671
Cc1ccc(-c2noc(CCC(=O)NC3CCCC3)n2)cc1 | 0.985 | -0.541
COc1ccc(-c2cc(C(=O)N3CCN(c4ccccc4)CC3)no2)cc1 | 1.09 | 0.317
COc1ccc(-c2csc(Nc3ccc(S(=O)(=O)Nc4cc(C)on4)cc3)n2)cc1 | 0.89 | -3.84
Cc1ccc(C)c(N2CCN(CCCNC(=O)CC3Oc4ccccc4NC3=O)CC2)c1 (stereo not drawn) | 0.967 | -0.19
Nc1nonc1-c1noc(COc2ccc(Cl)cc2Br)n1 | 1.02 | 0.593
CC1CCN(CCCNC(=O)CCc2nc(-c3ccccc3F)no2)CC1 | 0.974 | -0.553
CC1CCC(NC(=O)C2=CCN(S(=O)(=O)c3ccc(Br)cc3)CC2)CC1 (stereo not drawn) | 1.04 | 1.6
Cc1cc(C)c(-c2csc(NC(=O)c3cccc(Br)c3)n2)c(C)c1 | 1.08 | 1.79
CCOc1ccc(-c2cn(-c3ccc(OCC)cc3)c(=O)[nH]2)cc1 | 0.983 | -0.723
Cc1ccc(C)c(N2CCN(S(=O)(=O)c3ccc4[nH]c(=O)[nH]c4c3)CC2)c1 | 0.967 | -0.213
COc1ccc(NC(=O)CC2C(=O)N(c3ccccc3)C(=O)N2Cc2ccc(C)cc2)cc1 (stereo not drawn) | 1.02 | 0.63
CCOC(=O)c1c[nH]c2ccc(OC)cc2c1=O | 1.18 | 2.76
CCN(CC)C(=O)Cn1cnc2sc(C(=O)Nc3ccccc3OC)c(C)c2c1=O | 1.05 | 1.59
O=C(Nc1ccc(F)cc1)Nc1csc2c1CCCC2 | 0.967 | -0.354
COc1cccc(N2C(=O)CC(N3CCN(Cc4ccc5c(c4)OCO5)CC3)C2=O)c1 (stereo not drawn) | 0.975 | -0.385
COc1ccc(C(=O)Nc2nc(-c3ccccc3)ns2)cc1 | 1.06 | 0.605
C=CCn1c(C2CC(=O)N(c3ccccc3)C2)nc2ccccc21 (stereo not drawn) | 1.01 | 0.198
Carrying on.
SMILES | CBX7 AlphaScr | CBX7 AlphaScr z-score
COc1ccc(CCNc2nc(-c3ccc(Cl)cc3)cs2)cc1OC | 0.915&0.921 | -2.36&-3.25
O=C(NCc1cccnc1)c1cc(-c2ccc(Cl)c(Cl)c2)on1 | 1.02 | 0.456
CCOC(=O)Cc1csc(NC(=O)COc2cccc(C)c2)n1 | 1.08 | 0.737
COc1cc2c(C(=O)N3CCC(C)CC3)cn(C)c(=O)c2cc1OC | 0.995 | -0.16
COc1ccc(CCNC(=O)c2cnc(Nc3ccc(C)c(Cl)c3)c3ccccc23)cc1OC | 1.12 | 3.44
Cc1ccc(NC(=O)C(C(C)C)N2C(=O)c3ccccc3C2=O)cc1 (stereo not drawn) | 1.01 | 0.188
CCc1nnc(NC(=O)c2ccc(S(=O)(=O)N(CC)CC)cc2)o1 | 0.103* | -1.56*
Cc1ccccc1NC1c2ccccc2C(=O)N1c1ccccc1C (stereo not drawn) | 0.985 | -0.51
Cc1cccc(CCNC(=O)c2ccc(CNc3c(N4CCCCC4)c(=O)c3=O)cc2)c1 | 0.925 | -0.172
Cc1ccsc1CCNC(=O)C1CCN(c2ccc(N3CCOCC3)nn2)CC1 | 1.03 | 0.208
CCOc1ccc2c(c1)c(=O)c(S(=O)(=O)c1ccccc1)cn2Cc1ccccc1F | 0.814 | -3.57
CC(C)CC(=O)Nc1cccc(-c2cn3ccccc3n2)c1 | 0.957 | -1.2
C#CCOc1ccc(-c2nnc(Nc3ccc(OC)c(C(=O)NC)c3)c3ccccc23)cc1 | 1.05 | 0.228
O=C(CCn1nc(-c2ccc(Cl)cc2)ccc1=O)NCc1cccnc1 | 1.06 | 2.89
Cc1nc2cc(-c3ccc(Cl)cc3)nn2c(C)c1CCC(=O)NC1CCCC1 | 1.04 | 0.26
O=C1c2ccccc2C(=O)N1C1C(=O)N(c2ccc(Cl)cc2)C1c1ccc(F)cc1 (stereo not drawn) | 0.905 | -2.09
CCN(C(=O)CCc1nc(-c2ccc(C)cc2)no1)c1cc(OC)ccc1OC | 1.01 | 0.227
CC(C)(C)c1ccc(C2NC(=O)c3[nH]nc(-c4ccccc4)c32)cc1 (stereo not drawn) | 1.03 | 0.927
CCOC(=O)c1oc2ccccc2c1NC(=O)COc1ccccc1C | 1.07 | 2.41
Cc1sc(NC(=O)CCC(=O)O)c(C(N)=O)c1-c1ccccc1 | 0.995 | -0.132
Clc1ccccc1CN1C2=NCCCN2c2ccccc21 | 1.04 | 0.232
COC(=O)c1c(NC(=O)COc2cccc(C)c2C)sc2c1CCCC2 | 1.01 | 0.268
COc1cc(Nc2nc(SCC(=O)NCC3CCCO3)nc3ccccc23)cc(OC)c1 (stereo not drawn) | 0.901 | -0.278
Cc1oc(-c2ccc(Cl)cc2)nc1CN1CCC(C(=O)NCCN(C)C)CC1 | 1.02 | 0.694
Cc1cc(N2C(=O)c3ccc(C(=O)Nc4ccccc4)cc3C2=O)no1 | 1.13 | 2.58
CCCNC(=O)c1cc2nc(-c3ccc(C)cc3)cc(C(F)(F)F)n2n1 | 1.02 | 0.288
CCCOc1ccc(C(=O)N(Cc2ccc(N(C)C)cc2)C2CCS(=O)(=O)C2)cc1 (stereo not drawn) | 1.01 | 0.118
Oc1ccccc1-c1cc(-c2ccc3c(c2)OCCO3)n[nH]1 | 0.884 | -4.13
CCN1CCCC1CNC(=O)c1cc(-c2ccncc2)nc2ccccc12 (stereo not drawn) | 1.23 | 0.257
COc1cc(OC)cc(-c2nc(-c3ccccc3)c(-c3ccc(F)cc3)[nH]2)c1 | 0.877 | -3.06

13 neighbouring compounds from above:
SMILES | CBX7 AlphaScr | CBX7 AlphaScr z-score
CCC(=O)N1c2ccc(S(=O)(=O)NCc3cccc(OC)c3)cc2CC1C (stereo not drawn) | 0.836 | -0.661
COc1ccc(-c2nc3ccc(Cl)cn3c2Nc2ccc(C)cc2)cc1 | 1.06 | 0.566
Cc1ccc(C)c(N(C)S(=O)(=O)c2ccc3[nH]cc(C(=O)N4CCCCCC4)c(=O)c3c2)c1 | 0.98 | -0.191
Clc1ccccc1-c1nc(Oc2ccccc2)nc2ccc(Br)cc12 | 1.09 | 1.51
Cc1nc2c(C(=O)NCc3ccccn3)cnn2c(C)c1Cc1ccccc1F | 1.03 | 1
COC(=O)c1ccc(OCC(O)Cn2c(C)nc3ccccc32)cc1 (stereo not drawn) | 1.04 | 0.618
Cc1cc(Nc2ccc3c(c2)OCCO3)n2nc(C)nc2n1 | 0.986 | -0.305
COc1ccc(OC)c(C2CC(=O)Nc3c2ccc(C)c3C)c1 (stereo not drawn) | 1.01 | 0.248
CCOC(=O)c1cnc2c(C)cc(Cl)cc2c1Nc1cccc(C)c1C | 1.25 | 1.12
c1cnc(Nc2nc(-c3ccncc3)cs2)nc1 | 1.09 | 1.69
CCc1ccc(NC(=O)c2cnn(-c3ccc(C)c(C)c3)c2C2CCNCC2)cc1 | 1.01 | 0.101
Cc1oc(-c2cccc(Cl)c2)nc1CN1CCC(C(=O)NCCCOC(C)C)CC1 | 1.24 | 2.08
CCCN1Cc2cccc(C(=O)NCc3ccc(F)cc3)c2C1=O | 1.06 | 0.0615

New compounds follow.
SMILES | CBX7 AlphaScr | CBX7 AlphaScr z-score
Cn1c(=O)[nH]c(=O)c2c1nc(CN1CCN(Cc3ccccc3)CC1)n2Cc1ccc(Cl)cc1 | 0.964 | -1.33
O=C(Nc1ccc(Cl)cc1)c1ccc2c(=O)n3c(nc2c1)CCCCC3 | 0.825 | -2.87
CCN1CCN(CCCNC(=O)CCc2nc(-c3ccccc3F)no2)CC1 | 1.01 | 0.322
COC(=O)c1c(NC(=O)c2ccccc2Cl)sc2c1CCCCCC2 | 1.19 | 4.6
COc1cc(OC)c(NC(=O)c2cn(CC(C)C)c(=O)c3cc(OC)c(OC)cc23)cc1Cl | 0.942 | -0.491
O=C(CSc1nnc(Cc2cc(=O)[nH]c(=O)[nH]2)n1-c1ccccc1)NCC1CCCO1 (stereo not drawn) | 0.876 | -4.37
CCCSCCCNC(=O)c1cc2c(s1)CS(=O)(=O)C2 | 1.05 | 1.47
Cc1cccc(C)c1NS(=O)(=O)c1ccc2c(c1)NC(=O)CC(=O)N2 | 1.09 | 3.43
Cc1c(C(=O)N2CCCCC2)oc2ccc(S(=O)(=O)N3CCCCCC3)cc12 | 0.686 | -5.68
COc1ccccc1-c1cc(C(=O)Nc2c(C)nn(Cc3c(Cl)cccc3Cl)c2C)no1 | 0.996 | -0.107
CC1CCCC(C)N1CCNC(=O)c1cc(=O)[nH]c2ccc(S(=O)(=O)N3CCCC3)cc12 (stereo not drawn) | 0.966 | -1.02
COc1ccc(OC)c(NC(=O)CSc2nc3ccc(N)cc3s2)c1 | 1.01 | 0.13
COCCn1cnc2sc(C(=O)Nc3ccc(F)cc3Cl)c(C)c2c1=O | 1.08 | 2.48
O=C(NCc1cccnc1)c1ccc2c(c1)ncn2-c1cccc(F)c1 | 0.882 | -1.41
COc1cccc(-c2nc3cc(NC(=O)c4cncc(Br)c4)ccc3o2)c1 | 1.06 | 0.0849

Complete entries, quoted from the list. Order of screens: CBX7 AlphaScr | CBX7 AlphaScr z-score
`Cc1c(C(=O)N2CCCCC2)oc2ccc(S(=O)(=O)N3CCCCCC3)cc12` is listed as 0.686 | -5.68
`COc1ccc(OC)c(NC(=O)CSc2nc3ccc(N)cc3s2)c1` is listed as 1.01 | 0.13

The list is partial. The share of hits here may be higher or lower than overall.
